Compound activity from PubChem BioAssay.
A1 inh: inducers of caspase activity in MEF A1-2A-BIM cells, primary screen, A1 inhibitor project, cell-based, CaspaseGlo luminescence; actives 0.51% (n = 21,000); caspase-Glo luminescence, 3 h; percent of clofoctol signal, DMSO as zero; caspase activation, % (test concentration not listed); AID 2241, 2010;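 active = most replicate scores above 10, or exactly half above 10 with mean activity above 10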;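 note: effector caspase 3 and 7 activity cleaving a DEVD luciferin substrate; 50 nL library stock added to about 30 µL; numbers are from one replicate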
BJeLR viability: BJeLR cell viability loss, primary screen, luminescence, CellTiterGlo ATP. BJeLR fibroblasts viability, 48 h; HRASV12, hTERT and SV40 LT/ST transformed. viability loss activity score, % (test concentration not listed). actives 0.64% (n = 30,000). AID 2275, 2010; in the data active = viability loss activity score above about 50%; about a fifth of its hits are not listed in these tables;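 note: higher score means fewer live cells and less ATP luminescence; stock transfer was 50 or 100 nL into about 30 µL; 0% = vehicle wells and 100% = a reference killing control; one replicate is shown; the record names a cut of 85%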
An asterisk follows results filed as active; / = not tested or not shown. Some of the compounds tested. The share of hits here may be higher or lower than overall.

SMILES	A1 inh	BJeLR viability
COc1ccc(NC(=O)N(C)C[C@@H]2Oc3ccc(NC(=O)CCCN(C)C)cc3C(=O)N([C@H](C)CO)C[C@@H]2C)cc1	-0.2	-1.1
O=C(CN1C(=O)c2ccccc2C1=O)N(Cc1ccccc1)Cc1ccccc1	-0.5	-0.7
C[C@H](CO)N1C[C@H](C)[C@H](CN(C)C(=O)Nc2cccc3ccccc23)Oc2ccc(NC(=O)Cc3cn(C)c4ccccc34)cc2C1=O	0.6	-0.2
CNC[C@@H]1Oc2c(NC(=O)Nc3ccc4c(c3)OCO4)cccc2C(=O)N([C@@H](C)CO)C[C@H]1C	/	-7.1
CCc1ccc(/C=C2\C(=N)N3N=C(S(C)(=O)=O)SC3=NC2=O)cc1	/	-1.5
Cc1cc(C)n2nc(CC(=O)NCc3ccccc3Cl)nc2n1	0.4	-6.6
COC(=O)C1=CO[C@@H](O[C@@H]2O[C@H](CO)[C@@H](O)[C@H](O)[C@H]2O)[C@H]2[C@@H]1C=CC21C=C([C@H](C)OC(=O)/C=C/c2ccc(O)cc2)C(=O)O1 (stereo not given in full)	0.4	-0.2
Clc1ccccc1N=C/C=C1\NN=NC1c1ccc(Br)cc1 (stereo not given)	0.0	5.7
CC(C)n1cnc2c(NCc3ccccc3O)nc(NCCCO)nc21	1.0	1.7
C[C@@H]1CN([C@H](C)CO)C(=O)c2cc(NC(=O)Cc3ccccc3)ccc2O[C@@H]1CN(C)S(=O)(=O)c1ccc(Cl)cc1	0.6	1.4
C[C@H]1CN([C@@H](C)CO)C(=O)c2cccc(NS(=O)(=O)c3cn(C)cn3)c2O[C@H]1CN(C)Cc1ccc(Oc2ccccc2)cc1	/	-2.0
O=C(CSc1nsc(SCC(=O)c2ccccc2)n1)c1ccccc1	-1.4	0.9
Cc1cccc(C)c1NC(=O)C(C)N (stereo not given)	-0.3	-2.1
C[C@H]1CN([C@@H](C)CO)C(=O)c2cc(NC(=O)NC3CCCCC3)ccc2O[C@@H]1CN(C)Cc1ccc(C(F)(F)F)cc1	0.4	10.5
COc1ccc(S(=O)(=O)Nc2cccc3c2O[C@H](CN(C)CC2CCCCC2)[C@H](C)CN([C@H](C)CO)C3=O)cc1	/	-2.0
Cc1ccc(S(=O)(=O)Nc2cccc3c2O[C@H](CN(C)Cc2ccncc2)[C@H](C)CN([C@H](C)CO)C3=O)cc1	/	0.0
COc1ccc([C@H]2Oc3cc(O)cc(O)c3C(=O)[C@@H]2O)cc1	-0.2	-7.0
C=CCOc1ccccc1OCC(O)CNC(C)C (stereo not given)	-1.1	56.3*
Cc1cc(C(=O)Nc2cccc3c2O[C@H](CN(C)S(C)(=O)=O)[C@@H](C)CN([C@H](C)CO)C3=O)n(C)n1	/	9.4
Cc1ccc(S(=O)(=O)Nc2cccc3c2O[C@H](CN(C)Cc2ccc(C(=O)O)cc2)[C@H](C)CN([C@H](C)CO)C3=O)cc1	/	-5.3

Shown as labelled records: four of the compounds above
> COc1ccc(S(=O)(=O)Nc2cccc3c2O[C@H](CN(C)CC2CCCCC2)[C@H](C)CN([C@H](C)CO)C3=O)cc1
  A1 inh: /
  BJeLR viability: -2.0

> Cc1ccc(S(=O)(=O)Nc2cccc3c2O[C@H](CN(C)Cc2ccncc2)[C@H](C)CN([C@H](C)CO)C3=O)cc1
  A1 inh: /
  BJeLR viability: 0.0

> COc1ccc([C@H]2Oc3cc(O)cc(O)c3C(=O)[C@@H]2O)cc1
  A1 inh: -0.2
  BJeLR viability: -7.0

> C=CCOc1ccccc1OCC(O)CNC(C)C (stereo not given)
  A1 inh: -1.1
  BJeLR viability: 56.3*

(next part)
SMILES	A1 inh	BJeLR viability
C1=C(c2ccccc2)CC(c2ccccc2)=NN=C1c1ccccc1	1.0	-1.9
CCS(=O)(=O)c1nc(S(=O)(=O)c2ccc(Cl)cc2)c(N2CCCC2)s1	0.0	0.6
CCn1c(=NC(=O)CSCC(=O)Nc2cc(C)on2)sc2ccccc21	/	-0.9
COCCn1c(=O)[nH]c2cc(C(=O)N3CCN(Cc4ccc5c(c4)OCO5)CC3)ccc2c1=O	/	11.4
CCN(CC)C(=O)Cn1cc(S(=O)(=O)CC(=O)NCc2ccc(F)cc2)c2ccccc21	-0.3	-0.1
C[C@H](CO)N1C[C@H](C)[C@H](CN(C)CC2CCCCC2)Oc2c(NC(=O)C3CC3)cccc2C1=O	/	2.8
C[C@@H]1CN([C@H](C)CO)C(=O)c2cc(NC(=O)c3ccncc3)ccc2O[C@H]1CN(C)Cc1ccncc1	-0.1	0.7
Cc1ccccc1COc1ccc2oc(-c3ccccc3)c(C(=O)O)c2c1	-2.4	7.6
O=C(c1ccccc1)N(Nc1ccccc1)c1ccccc1	1.0	2.0
O=C(NC(=S)N(Cc1cccnc1)Cc1ccccc1Cl)c1ccccc1	1.2	-1.9
O=C1/C(=C\c2ccccc2)N=C2SCCCCN12	-0.5	3.2
Cc1ccc(C(C)C)c(OCCN2CC(C)CC(C)C2)c1 (stereo not given)	/	4.7
Cc1ccc2cc(OC(=O)c3ccc(Oc4cc(Cl)cc(Cl)c4)o3)ccc2n1	0.5	-0.2
C[C@H]1CN([C@@H](C)CO)C(=O)c2cc(NS(=O)(=O)c3ccc(Cl)cc3)ccc2O[C@H]1CN(C)C(=O)Nc1cccc2ccccc12	0.0	-0.5
O=C(CCCn1sc2ccccc2c1=O)N1CCc2ccccc21	-0.9	1.6
C[C@@H]1CN([C@@H](C)CO)C(=O)c2cc(NS(=O)(=O)c3ccc(Cl)cc3)ccc2O[C@@H]1CN(C)C(=O)Nc1ccc(F)cc1	0.0	1.1
CCOC(=O)c1c(C)sc2c(C)c(C)[nH]c12	-0.4	4.8
Cc1ccc2c(c1)c1c(n2CCc2ccncc2)CCN(C)C1	0.1	0.2
Cc1ccc(-c2cc(N)n[nH]2)cc1	/	-2.5
CN(CCO)S(=O)(=O)c1ccc2c(c1)C(=NO)c1cc(S(=O)(=O)N(C)CCO)ccc1-2	0.4	-1.3
C[C@H]1CN([C@@H](C)CO)C(=O)c2cc(NC(=O)Nc3ccc4c(c3)OCO4)ccc2O[C@@H]1CN(C)S(=O)(=O)c1cccs1	0.2	2.6
Cc1ccc(C(=O)OCC2OC(O)C(O)C2OC(=O)c2ccc(C)cc2)cc1 (stereo not given)	-0.2	1.5
CC1(C)CC(=O)c2c(SCC(=O)NN)sc(C#N)c2C1	0.3	-1.9
CCC(C(=O)Nc1ccc(S(N)(=O)=O)cc1)c1ccccc1 (stereo not given)	0.1	2.5
C[C@@H]1CN([C@H](C)CO)C(=O)c2cc(NS(=O)(=O)c3cccs3)ccc2O[C@H]1CN(C)C(=O)NC1CCCCC1	0.3	2.5
Clc1ccccc1/C=C/C=Nc1ccc(N2CCOCC2)cc1	0.4	-5.4
CCOC(=O)c1ccc(NC(=O)c2ccc(C)cc2)cc1	-0.4	0.2
C[C@@H]1CN([C@H](C)CO)C(=O)c2cc(NC(=O)Cn3cnnn3)ccc2O[C@@H]1CN(C)Cc1ccc(C(F)(F)F)cc1	-0.4	-1.5
Cc1c(C(=O)O)cc(-c2ccccc2)n1CCSCc1c(F)cccc1Cl	0.4	-2.0
CCCN(CCC)Cc1c(C(=O)O)nnn1-c1nonc1N	/	1.1
C/C=C1\C(O[C@@H]2O[C@H](CO[C@@H]3O[C@H](CO)[C@@H](O)[C@H](O)[C@H]3O)[C@@H](O)[C@H](O)[C@H]2O)OC=C(C(=O)OC)C1CC(=O)OCCc1ccc(O)cc1 (stereo not given in full)	1.5	1.5
CC(C)NC(=O)Nc1ccc2c(c1)C(=O)N([C@@H](C)CO)C[C@H](C)[C@@H](CN(C)C)O2	0.1	-4.1
C[C@H](CO)N1C[C@H](C)[C@H](CN(C)S(=O)(=O)c2cn(C)cn2)Oc2ccc(NC(=O)Cc3cn(C)c4ccccc34)cc2C1=O	0.2	-1.6
Cc1noc(C)c1NC(=O)N(C)C[C@H]1Oc2ccc(NS(=O)(=O)c3cccs3)cc2C(=O)N([C@H](C)CO)C[C@@H]1C	0.0	-1.2
Cc1ccc(S(=O)(=O)Nc2cccc3c2O[C@H](CN(C)S(=O)(=O)c2cccs2)[C@H](C)CN([C@H](C)CO)C3=O)cc1	/	1.7
CCCCN(C)C(=O)c1cn(CC)c2nc(C)ccc2c1=O	-0.1	-2.0
N#CCSc1ccc2nnc(CCNS(=O)(=O)c3ccccc3)n2n1	0.0	0.7
O=C(CSc1nnc(OC(=O)c2cccs2)n1C1CC1)c1ccc2c(c1)OCCO2	-1.3	3.1
Cc1ccc(CSc2nc3ccc(C(=O)N4CCN(c5ccccc5)CC4)cc3n2C)cc1	1.6	-2.0
CC1=CC[C@@]2(C)CC[C@@](O)(C(C)C)[C@@H]2[C@@H](O)C1	0.1	-2.3
C[C@@H]1CN([C@@H](C)CO)C(=O)c2cc(NC(=O)Nc3ccccc3)ccc2O[C@H]1CN(C)C(=O)Nc1cccc2ccccc12	-0.4	2.2
CCC1(C)CC(CCN2C(=O)c3ccccc3C2=O)(c2ccc(C)cc2)CCO1 (stereo not given)	0.4	-5.2
O=C(NCC1CC1)c1ccccc1NS(=O)(=O)c1ccc(F)cc1F	0.4	2.3
Cc1cc2cc(CNC(=O)c3ccc4ccccc4c3)ccc2[nH]1	/	20.1
CC(C)(O)C(O)COc1c2occc2cc2ccc(=O)oc12 (stereo not given)	-0.4	-8.7
CN(C)CCNc1cc(-c2cccnc2)nc2ccccc12	-0.4	0.2
Cn1c(/C=C/C=C/N2CCCC2)nc2ccccc2c1=O	-1.2	-4.7
C[C@H](CO)N1C[C@H](C)[C@H](CN(C)Cc2ccncc2)Oc2c(NS(=O)(=O)c3cccs3)cccc2C1=O	/	-2.0
CC1CCN(S(=O)(=O)c2cc(Br)ccc2Br)CC1	-0.4	-0.1
O=C(NCc1cccs1)c1cc(-c2ccccc2)oc1C(F)(F)F	/	8.0

Part of the list above, set out differently.
molecule,A1 inh,BJeLR viability
O=C(NC(=S)N(Cc1cccnc1)Cc1ccccc1Cl)c1ccccc1,1.2,-1.9
C=CCOc1ccccc1OCC(O)CNC(C)C (stereo not given),-1.1,56.3*
CC(C)NC(=O)Nc1ccc2c(c1)C(=O)N([C@@H](C)CO)C[C@H](C)[C@@H](CN(C)C)O2,0.1,-4.1
CCc1ccc(/C=C2\C(=N)N3N=C(S(C)(=O)=O)SC3=NC2=O)cc1,/,-1.5
COC(=O)C1=CO[C@@H](O[C@@H]2O[C@H](CO)[C@@H](O)[C@H](O)[C@H]2O)[C@H]2[C@@H]1C=CC21C=C([C@H](C)OC(=O)/C=C/c2ccc(O)cc2)C(=O)O1 (stereo not given in full),0.4,-0.2

Carrying on:
SMILES	A1 inh	BJeLR viability
C[C@H](CO)N1C[C@H](C)[C@H](CN(C)S(C)(=O)=O)Oc2c(NC(=O)c3nc4ccccc4s3)cccc2C1=O	/	5.8
COc1ccc(NC(=O)N(C)C[C@@H]2Oc3ccc(NC(=O)Cn4cnnn4)cc3C(=O)N([C@@H](C)CO)C[C@@H]2C)cc1	0.6	-2.0
C[C@H](CO)N1C[C@H](C)[C@@H](CN(C)CC2CC2)Oc2ccc(NS(=O)(=O)c3cccs3)cc2C1=O	0.1	0.0
Cn1c(=O)c2c(ncn2CCCCn2cnc3c2c(=O)n(C)c(=O)n3C)n(C)c1=O	0.2	1.0
Cc1cc(C(=O)Nc2cccc3c2O[C@H](CN(C)C(=O)Nc2ccc(F)cc2)[C@@H](C)CN([C@@H](C)CO)C3=O)n(C)n1	/	-4.3
Cc1noc(C)c1S(=O)(=O)Nc1ccc2c(c1)C(=O)N([C@@H](C)CO)C[C@H](C)[C@@H](CN(C)C(=O)Nc1ccc(F)cc1)O2	1.1	-0.4
CC1CCCCC1NC(=O)c1cc(-c2cccs2)nc2ccccc12 (stereo not given)	/	2.9
N#CC1=C(N)Nc2c(c(=O)oc3ccccc23)C1c1ccc(Br)cc1 (stereo not given)	1.0	12.0
C[C@@H]1CN([C@H](C)CO)C(=O)c2cc(NC(=O)Nc3ccc(F)cc3)ccc2O[C@H]1CN(C)Cc1ccc2c(c1)OCO2	-0.8	0.8
COc1cc(OC)c(C(=O)c2ccc(O)cc2)c(OC)c1	0.0	0.9
COc1ccc(NC(=O)N(C)C[C@H]2Oc3c(NS(=O)(=O)c4ccc(OC)cc4)cccc3C(=O)N([C@H](C)CO)C[C@@H]2C)cc1	/	-7.9
COc1ccc(CNC(=O)c2cccc3c2C(=O)N(c2ccc(OC)cc2)C3)cc1	/	6.3
Cc1cc(C(=O)Nc2cccc3c2O[C@@H](CN(C)S(=O)(=O)c2ccccc2)[C@H](C)CN([C@@H](C)CO)C3=O)n(C)n1	/	-1.5
Cc1ccc(S(=O)(=O)N(C)C[C@@H]2Oc3ccc(NC(=O)Cc4ccccc4)cc3C(=O)N([C@@H](C)CO)C[C@H]2C)cc1	0.2	1.0
COc1ccc(C(=O)Nc2ccc(S(=O)(=O)N3CCCCC3C)cc2)c(OC)c1OC (stereo not given)	-0.6	4.6
O=c1c2ccccc2n(Cc2ccc(Cl)cc2)c(=O)n1Cc1ccc(Cl)cc1	0.2	-2.0
COc1ccc2nc3c(nc2c1)-c1cccc2cccc-3c12	-4.5	2.0
CNC1CCc2cc(OC)c(OC)c(OC)c2-c2ccc(OC)c(=O)cc21 (stereo not given)	4.5	58.5*
Cc1ccc2c(c1)N(CCC(=O)NC1CCC(C)CC1)C(=O)CO2 (stereo not given)	/	-1.4
O=S(=O)(c1ccccc1)N1CCN(c2ccccc2)CC1	-0.1	1.3
C[C@@H]1CN([C@@H](C)CO)C(=O)c2cc(NC(=O)C3CC3)ccc2O[C@H]1CN(C)C(=O)Nc1cccc2ccccc12	0.1	-1.3
